# High-throughput results from PubChem.
# Beta2AR agonist – agonists of human beta-2 adrenergic receptor inducing internalization; Am2.2-beta2AR cells, FAP receptor internalization, flow cytometry; reference of the scale not given here; 340,000 tested, 0.43% active; AID 504454; response, % (test concentration not listed);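 active = response above a set limit, near 3 SD of response in nonfluorescent compounds, cut at about 42% in these data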;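 note: stock transfer was 100 nL into about 11 µL; a reference agonist was the positive control; negative values mostly stem from fluorescent compounds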
# FGF22 binding – FGF22 (human) thermal shift binding. Q9HCT0. recombinant FGF22 thermal shift, SYPRO orange fluorescence; percent of sucrose octasulfate shift, DMSO zero. calls only at 9.99 µM. 340,000 tested, 1.5% active. AID 651658;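 active = melting point raised past a set limit in the mean and every replicate; three in four hits are not shown here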
# Target sequence (Q9HCT0 whole entry, looked up): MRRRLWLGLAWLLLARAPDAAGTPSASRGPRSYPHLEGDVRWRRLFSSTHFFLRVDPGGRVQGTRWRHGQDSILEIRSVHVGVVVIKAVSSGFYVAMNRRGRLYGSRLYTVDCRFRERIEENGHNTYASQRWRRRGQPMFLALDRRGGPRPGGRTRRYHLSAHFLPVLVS
# LANA-H2B inh – blocks KSHV LANA binding to histone H2A/H2B; Q9QR71; cell-free LANA-H2A/H2B peptide, fluorescence polarization; inhibition, % (concentration not given with the values); 320,000 tested, 0.6% active; AID 2629; in the data active = inhibition mostly above about 10%, no sharp cut-off; inactive = mostly below about 6.7%;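 note: stock transfer was 7.5 nL into about 10 µL; 0% = median of vehicle wells and 100% = median of positive control wells; one replicate is shown; the record names a cut of 25% in any replicate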
# HNF4A DNA FP – change in binding of human HNF4 alpha to DNA; P41235; HNF4a-FITC DNA binding, fluorescence polarization, 1 h; activity change, % at 10 µM; 360,000 tested, 0.3% active; AID 1224865; in the data active = activity change above about 30%, passing the limit was not always enough;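 note: controls were the assay level and a saturating level of protein; the project sought stronger binding though the title names inhibitors; some compounds called inactive have numbers as strong as hits; positive values seem to mean higher polarization but the record does not say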
# Target sequence (P41235 whole entry, looked up): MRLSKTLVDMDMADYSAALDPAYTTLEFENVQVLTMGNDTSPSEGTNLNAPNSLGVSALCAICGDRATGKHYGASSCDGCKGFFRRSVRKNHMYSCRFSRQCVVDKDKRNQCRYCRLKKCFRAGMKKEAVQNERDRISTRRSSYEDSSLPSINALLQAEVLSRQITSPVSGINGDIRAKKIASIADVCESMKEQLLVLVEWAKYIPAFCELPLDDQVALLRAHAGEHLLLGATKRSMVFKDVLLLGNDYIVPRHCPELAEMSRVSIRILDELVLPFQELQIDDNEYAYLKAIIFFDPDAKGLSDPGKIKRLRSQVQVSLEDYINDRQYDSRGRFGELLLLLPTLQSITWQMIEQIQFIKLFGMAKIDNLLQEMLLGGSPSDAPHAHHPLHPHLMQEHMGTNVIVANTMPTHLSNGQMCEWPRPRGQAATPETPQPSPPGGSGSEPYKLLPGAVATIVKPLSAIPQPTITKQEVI
# ALR inh – inhibitors of human sulfhydryl oxidase ALR; inhibition, % (concentration not given with the values); P55789; AID 485317; purified ALR, DTT oxidation, H2O2 HRP-luminol luminescence; 290,000 tested, 3.8% active;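 active = mean and each replicate at 75% or more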;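 note: stock transfer was 7.5 nL into about 7.5 µL; 0% = neutral wells and 100% = wells with inactivated enzyme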
# Ecoli growth – blocks Escherichia coli growth | OD600, 23 h; active compounds read low | OD600 absorbance (concentration not given with the values) | 330,000 tested, 0.21% active;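 active = OD600 absorbance below the run mean of sample wells minus 3.6 SD, in any replicate, cut at about 0.56 in these data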;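 note: stock transfer was 300 nL into about 60 µL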
# UCH37 inh – inhibitors of human deubiquitinating enzyme UCH37; Q9Y5K5; purified proteasome/UCH37, Ub-AMC cleavage fluorescence; inhibition, % (no concentration beside the values); 330,000 tested, 0.33% active; AID 588478;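 active = mean of two replicates above 20%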;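 note: 0% = compound-free wells with enzyme and 100% = wells lacking proteasome; stock transfer was 100 nL into about 20 µL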
# Target sequence (Q9Y5K5 whole entry, looked up): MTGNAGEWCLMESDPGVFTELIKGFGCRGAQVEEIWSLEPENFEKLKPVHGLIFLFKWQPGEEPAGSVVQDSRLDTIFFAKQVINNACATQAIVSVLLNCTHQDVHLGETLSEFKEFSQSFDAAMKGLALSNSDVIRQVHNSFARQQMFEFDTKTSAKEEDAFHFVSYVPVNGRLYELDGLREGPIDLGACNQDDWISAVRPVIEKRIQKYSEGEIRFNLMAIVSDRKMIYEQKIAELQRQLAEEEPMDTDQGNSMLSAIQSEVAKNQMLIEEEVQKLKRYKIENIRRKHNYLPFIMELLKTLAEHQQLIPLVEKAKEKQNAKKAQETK
#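 Signal – fluorescence, ex 355 nm, em 460 nm · System – Proteasome-bound UCH37 · Input – 0.15 nM proteasome as dispensed · Timing – 30 min preincubation with enzyme, 25 min cleavage at room temperature · Read-out basis – percent inhibition of cleavage signal versus uninhibited and no-proteasome wells · Medium – Tris-HCl pH 7.4 with ATP-MgCl2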
# Active calls of the source: *; i = inactive; · = not tested or not shown. This is a subset; count on the stated rates, not on these rows.
SMILES,Beta2AR agonist,FGF22 binding,LANA-H2B inh,HNF4A DNA FP,ALR inh,Ecoli growth,UCH37 inh
CC(C)Oc1ccc(S(=O)(=O)N2CCOCC2)cc1NC(=O)C(C)Oc1ccc(F)cc1 (stereo unspecified),11.3,i,2.6,-3.5,-2.0,0.681,-0.7
O=C(c1ccco1)N1CCN(C2CCCC2)CC1,11.9,·,0.0,1.9,-0.6,0.708,-0.7
Cn1c(=NC(=O)CCl)sc2ccccc21,-1.1,i,1.7,0.7,21.9,0.571,2.8
O=C(Nc1ccc(Br)cc1)c1cccn1-c1ncc(C(F)(F)F)cc1Cl,-14.3,·,-2.7,5.7,-7.6,0.676,2.0
CC(C)(C)NC(=O)c1ccc2c(c1)C1C3CCC(C3)C1C(c1ccccc1)N2 (stereo unspecified),-5.0,·,-4.6,-0.6,-1.7,0.558,3.4
CC(=O)C1=C(c2cccc([N+](=O)[O-])c2)N(C(C)=O)n2c(C)nnc2S1,12.2,i,-0.5,-1.2,97.7*,0.667,17.8
COc1cc(OC)cc(C(=O)Nc2cccc3ccccc23)c1,-1.9,i,0.0,1.8,-2.5,0.664,4.2
COc1ccccc1OC(=O)CN1C(=O)c2ccccc2C1=O,6.1,·,0.7,-1.4,·,0.724,2.9
O=c1c2ccccc2cnn1Cc1nnc(-c2cccs2)o1,-24.8,i,0.7,2.4,-1.1,0.652,4.4
CN(C(=O)c1ccc2nc(N)sc2c1)c1ccccc1,-1.3,i,2.2,1.9,-0.9,0.696,3.2
O=C(O)c1cc(-c2cccs2)nn1-c1ccccc1,0.1,i,4.6,-3.2,·,0.697,-0.6
COc1cc(NC(=O)CCN2CCN(c3ccccc3F)CC2)cc(OC)c1,0.8,·,3.8,1.4,-14.4,0.674,-2.0
Fc1ccc(-c2nnc(SCc3ncc(-c4ccccc4)o3)n2CC2CCCO2)cc1 (stereo unspecified),-6.1,·,2.1,1.8,·,0.715,2.3
Cc1ccc(CNC(=O)CC(C)S(=O)(=O)c2cc3c(cc2C)NC(=O)CO3)cc1 (stereo unspecified),2.1,i,·,3.5,·,0.731,5.2
CCOc1ccc(S(=O)(=O)NCCc2cn3ccccc3n2)cc1,-7.4,i,-0.9,-0.7,8.4,0.663,0.8
COc1ccc(N2CCN(C(=O)CCS(=O)(=O)c3ccc(OC)cc3)CC2)cc1,-2.6,·,-2.7,1.3,79.5*,0.624,5.8
O=C(Nc1ccc(NC(=O)C23CC4CC(CC(C4)C2)C3)cn1)c1ccco1,9.9,·,-1.5,0.9,-1.1,0.718,0.4
CCCN1C(=O)C(NC(C)=O)c2cc(OC)ccc21 (stereo unspecified),0.2,·,-0.5,-0.9,-3.2,0.745,-2.5
Nc1ccc(C23CC4CC(CC(CO)(C4)C2)C3)cc1,-3.1,·,1.9,0.3,93.0*,0.733,2.5
Cc1cc(NC(=O)CSc2nnc(C(C)N(C)C)n2Cc2ccccc2)no1 (stereo unspecified),-3.6,·,1.0,3.3,0.7,0.673,1.7
Cc1ccc(N(CC(=O)NC2CCCC2)C(=O)CNC(=O)c2cccs2)c(C)c1,-9.0,i,-1.2,-0.9,·,0.65,2.8
O=C(C1CCCN(S(=O)(=O)c2cccnc2)C1)N1CCn2c1nc1ccccc12 (stereo unspecified),-6.7,i,1.9,1.0,-1.6,0.746,6.1
O=S(=O)(c1cccc2cccc(Cl)c12)N1CCCC1,7.1,i,-0.1,-3.3,-5.7,0.663,-2.1
COc1ccc(-c2csc(N3CCC(c4ccccc4)C3)n2)cc1 (stereo unspecified),5.4,·,-3.0,2.6,0.2,0.755,1.3
CC(=O)Nc1cc(-c2ccc(F)cc2)[nH]n1,5.8,i,-3.3,-2.3,25.7,0.707,-0.6
O=C(Nc1ccc(S(=O)(=O)Nc2nccs2)cc1)c1nn(-c2ccccc2)ccc1=O,57.8*,i,4.2,-21.5,-7.1,0.708,11.8
Cc1cccc2cc(COC(=O)C3CCCO3)c(=O)[nH]c12 (stereo unspecified),4.5,·,-0.9,-1.1,-1.9,0.744,0.0
O=C(COC(=O)/C=C/c1ccc(Cl)cc1)Nc1cccc(S(=O)(=O)NC2=NCCCCC2)c1,3.4,i,-0.8,1.9,-0.5,0.709,3.0
COc1ccc(CNC(=O)c2ccc3ccccc3n2)cc1,-8.2,i,3.2,2.0,·,0.645,-0.3
COc1ccc(NC(=O)CN(c2cc(C)cc(C)c2)S(=O)(=O)c2c(C)n[nH]c2C)cc1,2.8,i,·,3.4,·,0.761,4.4
CN1C(N)=NC(=O)/C1=C/c1ccc(F)cc1,-0.9,i,-1.5,0.3,-14.3,0.685,9.4
COc1ccc(-c2[nH]ncc2CNC(C)CCn2cccn2)cc1F (stereo unspecified),0.5,i,-1.6,3.6,-4.1,0.717,3.8
O=C(NCCC1=CCCCC1)c1ccc(CN2CCOCC2)cc1,6.3,·,1.4,-0.3,6.3,0.711,1.3
CCCN(C(=O)c1cccc(S(=O)(=O)N2CCN(Cc3ccccc3)CC2)c1)C1CCS(=O)(=O)C1 (stereo unspecified),-5.9,i,4.7,0.5,3.1,0.712,4.6
Cc1ccc(S(=O)(=O)N(C)C)cc1NC(=O)COC(=O)C1=COCCO1,-6.7,i,-1.5,-0.2,-0.9,0.669,3.1
CCc1cccc(CC)c1N(COC)C(=O)Cn1c(C(C)O)nc2ccccc21 (stereo unspecified),-0.8,·,3.0,-2.3,-2.3,0.65,0.0
O=C(NCCS(=O)(=O)N1CCN(c2cccc(Cl)c2)CC1)C1CC1,4.8,i,2.2,0.3,-0.8,0.696,-1.5
COc1ccc(CCNc2ncnc3sccc23)cc1OC,10.5,i,2.6,5.0,-4.1,0.741,-0.2
Cc1ccc(C)c(C(C)NC(=O)c2ccc(Br)o2)c1 (stereo unspecified),7.4,i,-2.4,-4.4,-4.3,0.707,1.0
O=C(O)C1=C[C@@H](c2ccccc2)C[C@@H](OCc2ccc(CO)cc2)O1,-687.1,i,1.3,3.5,5.0,·,1.0
CCSc1nnc(Cc2cc(=O)[nH]c(=O)[nH]2)n1-c1ccc(Cl)cc1,-8.1,i,1.5,0.4,26.7,0.705,5.4
Cc1ccccc1OCC(=O)NC(=S)Nc1ccc(N2CCCC2)cc1,2.6,i,5.3,-1.5,-0.8,0.749,6.0
COC(=O)c1sccc1NC(=O)Nc1cccc(C)c1C,-0.9,i,0.5,0.1,-12.5,0.691,0.6
Cc1cc(-c2ccccc2)[nH]c(=O)c1S(=O)(=O)c1ccc(Cl)cc1,-9.6,·,-2.3,2.4,-18.5,0.723,-235.2
CC1Cc2ccccc2N1Cc1nc2cc(C(F)(F)F)ccc2c(=O)[nH]1 (stereo unspecified),3.8,·,4.6,3.1,·,0.767,5.7
CN(Cc1ccccc1F)C(=O)CNC(=O)Cc1cccc2ccccc12,2.8,i,-0.4,2.7,5.4,0.7,1.3
Cc1ccc(-c2nn(-c3ccccc3)cc2/C=C(\C#N)c2cccc(C#N)c2)o1,1.2,·,-1.1,3.5,4.5,0.822,-30.8
COc1ccc(/C=C2\SC(=S)N(CCC(=O)Nc3cccc(C(=O)O)c3)C2=O)cc1OC,-2.5,i,-1.3,3.2,6.8,0.687,6.0
CCn1c(=O)c([N+](=O)[O-])c(N2CCSCC2)c2ccccc21,1.8,i,-3.6,-1.0,-7.7,0.65,7.1
Cc1ccc(-c2nnn(CC(=O)N(Cc3cccs3)C(C(=O)NC3CCCC3)c3ccco3)n2)o1 (stereo unspecified),-7.5,·,3.6,0.4,·,0.651,0.5
COc1cccc(/C=C/C(=O)OCC(=O)c2c[nH]c3ccccc23)c1,8.4,i,·,6.9,·,0.643,3.1
COc1cc(/C=C/C(=O)OC(C)C(=O)Nc2c(C)n(C)n(-c3ccccc3)c2=O)ccc1O (stereo unspecified),-8.5,i,118.9*,-1.9,5.1,0.668,-24.8
CC1CCN(CCCCOc2ccccc2F)CC1,0.7,i,0.0,0.7,-7.5,0.649,2.4
C=CCN1C(=O)/C(=C\c2ccc(Cl)cc2)N=C1SCC(=O)NCCC,-4.3,·,-1.8,-0.5,2.0,0.744,-1.3
C=CCN=C1SC(CC)C(=O)N1S(=O)(=O)c1ccc(C)cc1 (stereo unspecified),-5.5,·,5.2,1.7,3.8,0.775,2.8
NS(=O)(=O)c1ccc(CNC(=O)c2ccc(Cl)c([N+](=O)[O-])c2)cc1,2.0,i,2.3,-4.0,-3.9,0.73,-1.2
Cc1onc(-c2ccccc2Cl)c1C(=O)NCc1cccnc1,6.6,·,6.4,0.2,-1.5,0.672,-0.9
CC(=O)c1oc2ccccc2c1NC(=O)COC(=O)c1ccc(-n2nc(C)cc2C)cc1,0.9,·,-3.0,2.5,-5.1,0.75,-14.8
COc1ccc(S(=O)(=O)N2CCCCC2)cc1NC(=O)C1CC1,-2.1,i,1.4,-2.4,-3.4,0.705,4.0
CC(=O)N1c2ccc(S(=O)(=O)N3CCC(C(=O)Nc4cccc(C)n4)CC3)cc2CC1C (stereo unspecified),9.4,i,2.4,1.8,-3.0,0.629,-1.2

# By substructure, the entries above with two or more sulfur atoms.
SMILES,Beta2AR agonist,FGF22 binding,LANA-H2B inh,HNF4A DNA FP,ALR inh,Ecoli growth,UCH37 inh
O=C(Nc1ccc(S(=O)(=O)Nc2nccs2)cc1)c1nn(-c2ccccc2)ccc1=O,57.8*,i,4.2,-21.5,-7.1,0.708,11.8
CCCN(C(=O)c1cccc(S(=O)(=O)N2CCN(Cc3ccccc3)CC2)c1)C1CCS(=O)(=O)C1 (stereo unspecified),-5.9,i,4.7,0.5,3.1,0.712,4.6
COc1ccc(/C=C2\SC(=S)N(CCC(=O)Nc3cccc(C(=O)O)c3)C2=O)cc1OC,-2.5,i,-1.3,3.2,6.8,0.687,6.0
C=CCN=C1SC(CC)C(=O)N1S(=O)(=O)c1ccc(C)cc1 (stereo unspecified),-5.5,·,5.2,1.7,3.8,0.775,2.8

# Further compounds follow:
SMILES,Beta2AR agonist,FGF22 binding,LANA-H2B inh,HNF4A DNA FP,ALR inh,Ecoli growth,UCH37 inh
Cn1c(=O)c2c(nc(NCCNC(=O)c3ccco3)n2Cc2ccccc2Cl)n(C)c1=O,-7.0,·,0.9,-4.8,-17.0,0.745,1.2
CN(CC(=O)NCc1ccc(F)cc1)S(=O)(=O)c1ccc(Br)s1,-3.1,i,-10.3,-6.1,-3.6,0.706,4.0
COc1ccc(/C=C2\SC(=N)N(c3ccc(F)cc3)C2=O)cc1,-4.6,i,-1.0,-2.9,8.8,0.725,9.4
CCc1nnc(NC(=O)C2CC(=O)N(c3ccc(C)cc3)C2)s1 (stereo unspecified),7.0,·,-0.3,6.1,-2.3,0.685,1.3
CCOC(=O)C1CCN(CC(O)COc2ccc(S(=O)(=O)N3CCCC3)cc2[N+](=O)[O-])CC1 (stereo unspecified),8.9,i,·,4.1,·,0.654,6.5
CS(=O)(=O)N(CC(=O)Nc1ccc2c(c1)OCO2)c1ccc(Cl)cc1,-1.7,·,-1.8,-3.5,-10.8,0.688,2.1
CN(C)C(=O)CNC(=O)C1CCCCC1,-2.5,·,-7.5,0.2,-16.4,0.726,-0.6
COc1ccccc1C(=O)CSc1cccc[n+]1[O-],-4.6,i,-3.1,-0.8,3.8,0.693,0.5
COCCCNC(=O)CN(c1cc(C(F)(F)F)ccc1Cl)S(C)(=O)=O,-5.4,i,-3.1,-0.5,·,0.694,2.9
O=C(OC(C(=O)NCc1cccs1)c1ccccn1)c1cccs1 (stereo unspecified),2.2,·,3.9,1.5,-3.7,0.679,2.6
Cc1ccc(S(=O)(=O)c2c(C)cc(C)[nH]c2=O)c(C)c1,0.1,i,0.8,-0.6,-9.2,0.638,2.3
C/C(=N\NC(=O)c1ccc2c(c1)OCO2)c1cccnc1,-16.0,i,-5.4,0.6,57.8,·,·
O=C(CN1CCN(C(=O)C2CCCO2)CC1)Nc1cc(Cl)ccc1Cl (stereo unspecified),-2.5,i,-7.1,-1.2,-6.3,0.735,4.9

# Single entries from the results shown.
# For ALR inh, CCc1cccc(CC)c1N(COC)C(=O)Cn1c(C(C)O)nc2ccccc21 (stereo unspecified) reads -2.3
# For LANA-H2B inh, COc1ccccc1C(=O)CSc1cccc[n+]1[O-] reads -3.1
